TsaE inh = inhibitors of E. coli YjeE (TsaE). P0AF67. purified YjeE, fluorescence polarisation of a bound ADP probe. Potency, µM. 0.05% of 71,000 active; active = well fitted falling curve; inconclusive = weaker or top-dose-only fall, or a rising curve; inactive = flat or poorly fitted curve;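 note: top concentration of the series not given in the record; excess ADP was the control for the full effect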
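Fluorescence polarization of a BODIPY Texas Red–ADP probe (2 uM) bound to purified YjeE (10 uM) was read after 15 min room-temperature incubation with compounds. Loss of polarization marks inhibitors; ADP serves as titrated control.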
PK Bst = modulators of Bacillus stearothermophilus pyruvate kinase | Potency, µM | 1.2% of 51,000 active | partly purified Bacillus stearothermophilus pyruvate kinase, luminescence ATP production; ribose 5-phosphate activator present at AC10; in the data active means potency below about 11 µM; inconclusive means mostly about 12 µM to 25 µM; inactive means weaker than that;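 the screen sought inhibitors and activators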;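 note: potency is the fitted concentration of half-maximal effect; scaled between full activation by ribose 5 phosphate and full inhibition by luteolin; about four in five hits inhibit and the cells do not say which; series up to 57 µM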
The depositor's hits bear a star; i = inactive; ? = inconclusive; · = no result given. Not all compounds are listed, so the mix of outcomes need not match the whole.

SMILES	TsaE inh	PK Bst
O=c1oc2ccccc2cc1-c1cn2cccnc2n1	i	i
CC(=O)c1c(N)c(C#N)c(C)n1-c1ccc(Br)cc1	i	>57
CC(=O)Nc1ccc(-c2cn3cccnc3n2)cc1	i	·
CCOC(=O)N1CCN(S(=O)(=O)c2cccc3nonc23)CC1	i	>57
CCN(CC)CCCNC(=O)c1cc(-c2ccc(Cl)cc2)on1	i	>57
COc1ccc(CCn2nnnc2C(c2ccc(Cl)cc2)N2CCN(C)CC2)cc1OC (stereo not drawn)	i	>57
CCc1[nH]c(C)c(C(C)=O)c1C	i	>57
Cc1cccc(OCC(=O)N2CCN(C(=O)Cc3ccccc3)CC2)c1	i	·
CC[C@](C)(CN(C)C)OC(=O)c1ccccc1	i	·
Cc1cc(CC(C)C)n(-c2nc3ccccc3c(=O)n2OCC(=O)N(C)C)n1	i	>57
COC(=O)C1=C(C)NC(C)=C(C(=O)OC)C1c1ccc(OC(=O)c2ccco2)cc1	i	·
Cc1nc2ncnn2c(C)c1CCC(=O)N1CCc2ccccc2C1	i	>57
CC(C)COc1ccc(C(=O)OC2CC(C)(C)OCC2CN(C)C)cc1 (stereo not drawn)	i	>57
CSCC[C@H](NC(=O)OC(C)(C)C)c1nnc(SCC=C(C)C)o1	i	>57
O=c1c2c3c(sc2nc2n1CCCS2)CCCC3	·	i
COc1ccc(C(C)NC(=O)c2ccoc2C)cc1OC (stereo not drawn)	i	>57
Cc1ccc(C(=O)C(NC(=O)c2ccco2)N2CCOCC2)cc1 (stereo not drawn)	i	>57
COc1ccc(CCNC(=O)CSc2nncn2N)cc1OC	i	>57
COCCn1nnnc1CN1CCC(NC(=O)Nc2cccc(OC)c2)CC1	i	>57
COc1ccccc1NC(=O)CSc1nc(N)cc(N)n1	i	>57

As a working copy, part of the list above.
SMILES	TsaE inh	PK Bst
COCCn1nnnc1CN1CCC(NC(=O)Nc2cccc(OC)c2)CC1	i	>57
COc1ccccc1NC(=O)CSc1nc(N)cc(N)n1	i	>57

Given as labelled records: part of the list above.
CC(=O)c1c(N)c(C#N)c(C)n1-c1ccc(Br)cc1
  TsaE inh: i
  PK Bst: >57
CC(=O)Nc1ccc(-c2cn3cccnc3n2)cc1
  TsaE inh: i
  PK Bst: ·

Continued.
SMILES	TsaE inh	PK Bst
O=C(Nc1cccc2c1CCCC2)c1ccc(Br)o1	i	·
CCOC(=O)CSC1=C(C#N)C(c2sccc2C)CC(=O)N1 (stereo not drawn)	i	>57
Cc1nc2ncnn2c(C)c1CCC(=O)NC(C)c1ccc2c(c1)OCCO2 (stereo not drawn)	i	>57
COCC(C)n1c(COc2ccccc2F)nnc1SCc1c(C)noc1C (stereo not drawn)	i	>57
CC1CC(N(C(=O)c2ccco2)c2ccccc2)c2ccccc2N1 (stereo not drawn)	i	>57
CCn1c(CC(C)C)n[nH]c1=S	i	>57
COc1ccc(CN(C(=O)c2cccs2)c2nccs2)cc1OC	i	>57
C[C@@H](CCC(=O)O)C(=O)O	i	·
CC(C)CC(=O)Nc1cccc(-c2nc3ccccc3o2)c1	i	>57
Nc1[nH]c(=S)[nH]c(=O)c1N=Nc1c(Br)cc(S(N)(=O)=O)cc1Br	i	·
Oc1ccc(Cl)cc1-c1cc(-c2ccccc2)n[nH]1	i	·
CCC(=O)Nc1nc2ccccc2n1CCN(CC)CC	i	>57
COC(=O)c1cn(CC(=O)NCc2ccco2)c2ccccc12	i	>57
Cn1c(=O)c(C(=O)Nc2ncccc2O)c(O)c2ccccc21	i	>11.4
Cc1nc(N2CCOCC2)[nH]c(=O)c1CCC(C)C	i	>57
CCOC(=O)Nc1cc(C(=O)OCC)c(C)nc1C	i	>57
COC(=O)c1c(-c2ccncc2)csc1NC(=O)c1ccoc1C	i	·
C=CCn1c(COc2ccccc2)nnc1SCC(=O)Nc1ccc2c(c1)OCCO2	i	>57
COc1ccc2cc(C(=O)NCc3ccco3)c(=O)oc2c1	i	·
CCCCCCCCC(=O)NCc1cc(OC)c(O)cc1I	i	·
Cc1csc(NC(=O)c2ccco2)n1	i	·
CC(=Nc1ccc(C)c(C)c1)C1=C(O)CCC1=O	·	>25.6
COc1cccc(OCC(O)CN2CCC(Cc3ccccc3)CC2)c1 (stereo not drawn)	i	>57
COc1ccc(-n2nc(C(=O)N3CCCCC3)c3ccccc3c2=O)cc1	i	>57
N#CCCn1cc(C(CC(=O)c2ccccc2)C(=O)O)c2ccccc21 (stereo not drawn)	i	>57
COc1cc(OC)c(Nc2cc(C)nc3nc(C)nn23)cc1Cl	i	·
COc1ccc2c(c1)[n+]([O-])c(/C(C)=N/NC(N)=S)c(C)[n+]2[O-]	i	·
COC(=O)[C@@]1(Cc2ccc(F)cc2)[C@H]2c3cc(C(=O)N(C)C)n(Cc4ccccc4)c3C[C@H]2CN1C(=O)c1ccccc1	i	·
CC(C)CC(=O)Nc1ccc2oc(-c3ccncc3)nc2c1	i	i
O=C(OCC(=O)N1CCN(C(=O)c2ccco2)CC1)c1ccccc1C(=O)c1ccccc1	i	>57
OC1c2ccccc2-c2nc3ccccc3cc21 (stereo not drawn)	i	·
COC(=O)c1cc2ccccc2c(=O)s1	i	>57
O=C(c1ccccc1C(=O)N1CCN(c2ccc(F)cc2)CC1)N1CCN(c2ccc(F)cc2)CC1	i	>57
COCCCNC(=O)c1ccc(N(C)S(C)(=O)=O)cc1	i	>57
CCOC(=O)C1CCN(S(=O)(=O)Cc2ccccc2)C1=O (stereo not drawn)	i	>57
COC(=O)c1cc(-c2ccc(OC)c(OC)c2)n[nH]1	i	·
CC(=O)N(CC(O)CN(C(C)=O)c1c(I)c(C(=O)NC[C@@H](O)CO)c(I)c(C(=O)NC[C@@H](O)CO)c1I)c1c(I)c(C(=O)NC[C@@H](O)CO)c(I)c(C(=O)NC[C@@H](O)CO)c1I	i	·
CCn1c(SCC(=O)Nc2nc(-c3ccc(C)cc3)cs2)nnc1-c1ccccc1O	i	·
COC(=O)C(NC(=O)c1ccccc1)=C(C)C	i	>57
Cc1cccc(N2CCN(C(=O)CCn3c(=O)[nH]c4ccccc4c3=O)CC2)c1C	i	>57

Sorted by heavy-atom count (descending): some entries from above
SMILES	TsaE inh	PK Bst
CC(=O)N(CC(O)CN(C(C)=O)c1c(I)c(C(=O)NC[C@@H](O)CO)c(I)c(C(=O)NC[C@@H](O)CO)c1I)c1c(I)c(C(=O)NC[C@@H](O)CO)c(I)c(C(=O)NC[C@@H](O)CO)c1I	i	·
Cc1cccc(N2CCN(C(=O)CCn3c(=O)[nH]c4ccccc4c3=O)CC2)c1C	i	>57
CCOC(=O)C1CCN(S(=O)(=O)Cc2ccccc2)C1=O (stereo not drawn)	i	>57
COCCCNC(=O)c1ccc(N(C)S(C)(=O)=O)cc1	i	>57
COC(=O)C(NC(=O)c1ccccc1)=C(C)C	i	>57
COC(=O)c1cc2ccccc2c(=O)s1	i	>57

The results go on.
SMILES	TsaE inh	PK Bst
CN(c1ccc(OCc2nnc(-c3ccccc3)o2)cc1)S(=O)(=O)c1ccccc1	i	>57
CCOc1cc(C2NC(=O)NC(O)(C(F)(F)F)C2C(=O)c2ccc(Cl)cc2)ccc1O (stereo not drawn)	i	·
Cc1ccc(CNC(=O)C2(CC(C)C)C=CCN2C(=O)c2ccccc2)o1 (stereo not drawn)	i	·
O=C(CSC1CCCCC1)Nc1nccs1	i	>57
Nc1ccc2[nH]ncc2c1	·	>25.6
CCCSc1nnc(N2C(=O)CC(c3ccsc3)C3=C2CCCC3=O)s1 (stereo not drawn)	i	·
O=C(O)c1ccc(NCc2ccc3c(c2)OCO3)cc1	i	·
COc1ccc(OC)c(C2C(C#N)=C(N)Oc3c2c(C)nn3-c2ccc(C)cc2)c1 (stereo not drawn)	i	>57
O=S(=O)(c1cccs1)N1CCN(c2ncccn2)CC1	i	>57
Cc1ccc(-n2c(C)cc(C(=O)CSc3nnnn3C)c2C)cc1	i	·
CCN(CC)CCNC(=O)c1cc(Br)c(N)cc1OC	i	·
CCCCC(=O)c1c(O)c2ccccc2oc1=O	i	>57
O=c1c(-c2ccc3c(c2)OCCO3)coc2c(CN3CCOCC3)c(O)ccc12	i	>57
Cn1c(SCC(=O)NC2CCCC2)nc2cccnc21	i	>57
Cc1ccc2[nH]c(=O)c(C(c3nnnn3CC3CCCO3)N3CCCc4ccccc43)cc2c1 (stereo not drawn)	i	>57
CS(=O)(=O)N(CC(=O)NCc1ccccn1)c1ccc2c(c1)OCCO2	i	>57
Cc1ccc(CNC(=O)COC(=O)c2c(C)noc2C)cc1	i	>57
O=C(Nc1ccccc1C(=O)OCn1nnc2ccccc2c1=O)c1ccco1	i	>57
CCOC(=O)N1CCN(C2=NC3(CCCCC3)C(C#N)C(=O)N2)CC1 (stereo not drawn)	i	>57
Clc1ccccc1OCCN1CCCCC1	i	·
Cc1ccc(-n2nnnc2SCC(=O)NCCC2=CCCCC2)c(C)c1	i	>57
O=C(Cc1cccs1)Nc1ccon1	i	>57
CCCCNC(=O)c1c(C)cc(=O)oc1C	i	>57
COC(=O)c1ccc(-n2nnnc2SCC(=O)Nc2cc(OC)ccc2OC)cc1	i	>57
O=S(=O)(c1ccc(S(=O)(=O)N2CCCN(Cc3ccccc3)C2)cc1)N1CCCCCC1	i	>57
CCN1CCN(C(c2cc3cccc(C)c3[nH]c2=O)c2nnnn2Cc2ccccc2)CC1 (stereo not drawn)	i	>57
O=C(CCCn1c(=S)[nH]c2ccsc2c1=O)NCc1ccco1	i	·
COc1cccc(-c2nn(C)c3sc(C(=O)NCc4ccco4)cc23)c1	i	·
O=C(NCCc1ccccc1)C1CCCN1C(=O)Nc1ccc(F)cc1 (stereo not drawn)	i	>57
O=C(Nc1ccc(Br)cc1F)c1sccc1-n1cccc1	i	>57
Cc1ccc(Cn2ncc3c(N4CCN(Cc5ccc(Cl)cc5)CC4)ncnc32)cc1	·	>25.6
CCn1nccc1C(=O)NC1=C(C#N)CCC1	i	>57
O=S(=O)(c1cccc2cccnc12)N1CCOCC1	i	?
O=C(Nc1ccc(N2CCOCC2)cc1)Nc1ccc2nc(-c3ccco3)c(-c3ccco3)nc2c1	i	>57
COc1ccc(Br)cc1-c1nc(C)c(C(C)=O)n1O	i	>57
O=C(NC(Cc1ccccc1)C(=O)NCc1ccccn1)c1ccco1 (stereo not drawn)	i	>57
COc1ccc(-c2ccc(-c3noc(-c4ccccc4C)n3)c(OC)n2)cc1	i	·
Cc1ccc(CCNC(=O)CCNS(=O)(=O)c2ccc3c(c2)c(=O)n(C)c(=O)n3C)cc1	i	>57
CCCCn1c(Cl)nc2c1c(=O)n(C)c(=O)n2C	i	>57
COc1ccc(OC)c(C2C(C(=O)N(C)C)=C(C)Nc3nc4ccccc4n32)c1 (stereo not drawn)	i	>57
O=C(CCCCn1c(=O)c2ccccc2n(Cc2ccc(Cl)cc2)c1=O)NCc1ccco1	i	>57
CCOc1ccc(C(=O)N2CCN(C(=O)c3ccco3)CC2)cc1OCC	i	>57
O=C1CCCc2c1[nH]c1ccc(Br)cc21	i	·
COCCOCC(O)CN1CCN(c2ccccc2)CC1 (stereo not drawn)	i	>57
Cc1cccc2c(=O)oc(-c3ccc4c(c3)C(=O)N(CC3CCCO3)C4=O)nc12 (stereo not drawn)	i	>57
O=C1NCCN1C(=O)c1cccc(Cl)c1	i	>57
CC(NC(=O)Nc1nnc(C(F)(F)F)s1)(C(F)(F)F)C(F)(F)F	·	>25.6
Cc1c(CN(C)C(=O)CSc2nc(-c3ccco3)cc(C(F)(F)F)n2)cnn1C	i	>57
O=C(Nc1nnc(C(F)(F)F)s1)c1cccnc1	i	>57
CC(=O)NCCN=C(C)c1sc2ccccc2c1O	i	>11.4

(continued)
SMILES	TsaE inh	PK Bst
COc1ccc(-c2c(C)n([O-])c(C)c(C)[n+]2=O)cc1OC	i	>57
CCOC(=O)C1CCN(Cc2ccc(C(=O)OC)cc2)CC1	i	>57
CN1CCN(S(=O)(=O)c2ccc(-c3noc(C4CCN(S(C)(=O)=O)CC4)n3)cc2)CC1	i	>57
C=C(C)CSc1nnc(-c2cccc(S(=O)(=O)N(C)C)c2)n1-c1cc(OC)ccc1OC	i	>57
O=C(CC1N=C2c3ccccc3N=C(SCc3ccc(Cl)cc3)N2C1=O)NCc1ccco1 (stereo not drawn)	i	>57
CCOc1ccc(N(CC(=O)Nc2cccc(F)c2)S(=O)(=O)c2c(C)noc2C)cc1	i	·
O=c1oc2ccc3ccccc3c2cc1-c1nnc(-c2ccccc2)o1	i	·
COCCn1c(=NC(=O)c2ccc3c(c2)OCO3)c(C#N)cc2c(=O)n3cccc(C)c3nc21	i	>57
N#C/C(=C1\CCCN1)c1nc2ccccc2c(=O)[nH]1	i	·
CC(Oc1ccc(Cl)cc1Cl)C(=O)Nc1ccc2oc(-c3ccncc3)nc2c1 (stereo not drawn)	i	>57
C=CCn1c(-c2ccc(Cl)cc2)c[nH]c1=S	i	>57
NCCCCCC(=O)O	?	·
Nc1nc(NCc2ccco2)nn1-c1ccccc1	i	>57
O=C(O)CCN(CCC(=O)O)c1ccccc1	i	>57
Cc1ccc(C(=O)N2CCN(S(C)(=O)=O)C2)cc1	i	>57
CCOC(=O)C(NC(C)=O)(Nc1cccc(F)c1)C(F)(F)F (stereo not drawn)	i	>57
CCOC(=O)CCCCNCc1ccccc1	i	>57
CCOc1cc(C)nc(N2CCCC(C(=O)NCc3ccccc3F)C2)n1 (stereo not drawn)	i	>57
Cn1cccc1Cc1nnc(SCC(=O)NCc2ccc3c(c2)OCO3)n1CCc1ccccc1	i	>57

Record cards, as listed above.
CCOc1cc(C)nc(N2CCCC(C(=O)NCc3ccccc3F)C2)n1 (stereo not drawn) as listed: TsaE inh: i; PK Bst: >57
CCOC(=O)C(NC(C)=O)(Nc1cccc(F)c1)C(F)(F)F (stereo not drawn) as listed: TsaE inh: i; PK Bst: >57

From PubChem
